Screening data as filed in PubChem.
Insulin prom inh = TRM-6 insulin promoter activity inhibition. TRM-6 cells (human fetal islet line), insulin promoter-eGFP reporter, imaging; reporter expression induced with tamoxifen. inhibition, % at 2 µM. hit rate 0.9% among 130,000;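 active = inhibition above the mean plus 3 SD, with well images judged a real hit on visual review, cut at about 60% in these data, passing the limit was not always enough; inconclusive = inhibition over the cutoff but images rejected on review; inactive = inhibition not above the cutoff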
PKD1 kinase inh = PKD1 (human) kinase inhibition; hit rate 0.056% among 200,000; AID 797; inhibition, %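 (about 10 µM by stock and volumes)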; Q15139; PKD1 kinase fluorescence polarization assay;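 active = inhibition of 50% or more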;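 note: controls were vehicle for no effect and a reference inhibitor for full effect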
Target sequence (Q15139 whole entry, looked up): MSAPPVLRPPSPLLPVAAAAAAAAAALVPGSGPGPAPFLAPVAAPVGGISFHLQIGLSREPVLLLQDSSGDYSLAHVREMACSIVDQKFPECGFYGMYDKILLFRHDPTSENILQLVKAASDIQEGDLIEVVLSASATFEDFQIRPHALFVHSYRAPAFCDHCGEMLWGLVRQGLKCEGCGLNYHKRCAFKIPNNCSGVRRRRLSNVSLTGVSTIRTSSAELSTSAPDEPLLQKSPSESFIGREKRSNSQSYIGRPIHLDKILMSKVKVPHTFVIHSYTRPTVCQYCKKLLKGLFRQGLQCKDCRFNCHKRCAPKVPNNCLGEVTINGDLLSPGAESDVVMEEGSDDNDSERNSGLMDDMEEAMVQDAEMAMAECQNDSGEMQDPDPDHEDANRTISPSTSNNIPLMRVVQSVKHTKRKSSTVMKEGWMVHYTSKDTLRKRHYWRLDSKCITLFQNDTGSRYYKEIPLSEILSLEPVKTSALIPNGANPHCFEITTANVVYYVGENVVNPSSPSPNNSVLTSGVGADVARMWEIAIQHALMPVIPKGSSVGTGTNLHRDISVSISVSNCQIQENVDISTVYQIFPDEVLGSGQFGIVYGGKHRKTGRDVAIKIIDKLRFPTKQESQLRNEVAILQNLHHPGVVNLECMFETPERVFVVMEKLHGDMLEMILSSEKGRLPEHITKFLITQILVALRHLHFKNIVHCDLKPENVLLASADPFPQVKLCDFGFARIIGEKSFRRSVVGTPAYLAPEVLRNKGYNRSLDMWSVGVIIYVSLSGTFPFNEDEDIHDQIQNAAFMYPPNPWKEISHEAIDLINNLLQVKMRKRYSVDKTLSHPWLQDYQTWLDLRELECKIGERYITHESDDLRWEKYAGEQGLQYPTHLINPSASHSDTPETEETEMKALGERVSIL
RGS16-Gao HTS = regulators of human RGS16-Galphao interaction. hit rate 0.38% among 220,000. AID 1441. bead-based flow cytometry RGS16-Galphao binding, fluorescence; actives lie on both sides. binding response (% of control), % at 10 µM;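 active = below 25% or above 175%, edge rows of some plates excepted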;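 note: Galphao activated by GDP with aluminum fluoride before binding; 100% = wells without compound and 0% = beads without RGS; some results beyond the cut were filed as inactive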
HSV augment = increases HSV replication in cells; HSV replication augmentation in cells, fold increase; maximum fold increase; hit rate 0.005% among 220,000; AID 1956;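 active = peak rise of 1.5-fold or more in the series; inconclusive = self-fluorescent or not available for retest; tested in PC3 cells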;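 note: first round at 10 µM; read as green reporter fluorescence; hits show the peak of a series up to 25 µM; 1 = signal of infected wells without compound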
GALR2 agonist = agonists of human galanin receptor 2 (GALR2); O43603; GALR2-expressing cells, agonist activation read-out; activation, %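 (tested at 5 µM)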; hit rate 0.48% among 140,000; AID 803;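 active = above mean plus 3 SD of all compounds, about 5% in these data, not always enough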;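 note: 0% = vehicle buffer wells and 100% = reference agonist at full effect; tested in CHO reporter cells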
Insulin prom inh cell count = further read-out of Insulin prom inh, marked with its call; normalized cell count, %; measured here: cell count, toxicity; reference of the scale not given here;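 cells exposed to compound for 48 h; stained nuclei by imaging scaled within each plate; lower means fewer cells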
HSV augment primary fold = further read-out of HSV augment, marked with its call; fold increase; compound at 10 µM; measured here: primary screen fold increase 10 uM; tested in PC3 cells;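 GFP signal in the first replicate; 1 = infected wells without compound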
Active calls of the source: *; i = inactive; u = inconclusive; x = not tested or not shown. Outcome played no part in choosing rows; about 1.1% have a hit in one of these screens.

SMILES	Insulin prom inh	Insulin prom inh cell count	PKD1 kinase inh	RGS16-Gao HTS	HSV augment	HSV augment primary fold	GALR2 agonist
CC1CC(C)(C)NCc2ccccc21 (centres undefined)	x	x	3	111	i	0.81	-2.0
CCCOCC(O)CC(CC)C(=O)NNC(=S)Nc1ccccc1 (centres undefined)	0	106	-5	97	i	1.1	x
CCOC(=O)/C(N=Nc1ccc(F)cc1)=C(/O)c1ccc([N+](=O)[O-])cc1	-17	101	-5	95	x	x	-0.9
COc1ccc(C2CC(c3ccc(Br)cc3)=NN2C(=O)c2cccnc2)cc1 (centres undefined)	0	102	-4	98	i	0.91	0.0
C=CCOc1ccc(S(C)(=O)=O)cc1	x	x	x	100	i	1	x
CCN=C1S/C(=C\c2cc(OCC)c(O)cc2Br)C(=O)N1CC	50	82	15	102	x	x	3.7
CCOC(=O)c1cc(CC)sc1NC(=O)C(c1ccccc1)c1ccccc1	11	154	5	100	i	1.1	0.3
NC(=O)COC(=O)c1ccc(Oc2ccccc2)cc1	-18	119	10	89	i	1	-0.5
COc1ccc(/C(N)=N/OC(=O)C2CCC(=O)N2S(=O)(=O)c2ccc(C)cc2)cc1 (centres undefined)	-5	86	-1	106	i	0.98	-1.4
CCOCCCNCc1c(Cl)cccc1Cl	13	78	-4	82	i	1	0.9
CC(C)Cc1cc(C(=O)N2CCN(C(c3ccccc3)c3ccccc3)CC2)no1	x	x	12	110	i	0.74	-3.1
COc1ccc(-n2c(C)nc3cc(C(=O)NCc4ccco4)ccc32)cc1	29	94	-1	99	i	0.89	-1.1
COc1ccc(C(=O)OCCN2CCCCC2)cc1	15	126	-3	104	i	0.94	x
COC(=O)CCN(C(=O)c1cccc([N+](=O)[O-])c1)c1ccccn1	25	150	0	101	i	0.97	x
Cc1ccc(S(=O)(=O)n2ccc(=O)[nH]2)cc1	x	x	5	103	i	1.3	x
Cc1ccc(NC(=S)N/N=C2\CCCCC2C)cc1 (centres undefined)	x	x	-10	100	i	0.93	x
O=C(Nc1cc2c(cc1Cl)OCCCO2)c1ccccc1	4	85	-6	102	i	0.96	-3.3
COc1ccc(N2CCN(c3ncnc4nc[nH]c34)CC2)cc1	-40	94	1	108	i	0.82	-1.8
CCOc1ccc(NC(=O)CSc2nnc(-c3ccco3)n2C)cc1	x	x	-5	102	i	1	-1.0
O=C(CCC(=O)OCC(=O)c1ccc(Br)cc1)NC1CCCCC1	52	102	-9	108	i	1.1	-0.4
Cc1cc(-c2[nH]nc3c2C(c2ccc(Cl)cc2)C(C#N)=C(N)O3)c(C)s1 (centres undefined)	-238	52	1	104	i	1	-1.0
CCN(C1CCCCC1)S(=O)(=O)c1cn(C)c(=O)n(C)c1=O	x	x	4	108	i	0.96	-3.1
Cc1ccc(S(=O)(=O)/C(=C\N(C)C)c2cnc(Cl)s2)cc1	x	x	-2	92	i	1	x
Cc1c(C(=O)NNC(=S)Nc2cccc(Cl)c2)nnn1-c1ccccc1	-8	136	-15	105	i	0.97	-0.1
COc1ccc(CN2CN(c3ccc(Cl)cc3)C(=O)N(n3cnnc3)C2)cc1	-31	157	-7	100	i	1	-2.7
Cc1cc(C(=O)NNC(=S)NC(C)c2ccccc2)c2ccccc2n1 (centres undefined)	x	x	-8	131	u	x	-1.3
CCc1cc2c(SCC(=O)C(C#N)=C3N(C)c4ccccc4N3C)ncnc2s1	18	195	5	106	i	1	-2.2
Cc1cc(C)c2c3c(sc2n1)C(c1cccc(F)c1)C(C#N)=C(N)O3 (centres undefined)	22	150	-3	89	i	0.79	0.6
C/C=C/c1ccc(OCC(=O)Nc2ccc(C(N)=O)cc2)c(OC)c1	-71	34	7	112	x	x	x
Cc1ccc2cccc(NC(=S)NC(=O)c3c(Br)cnn3C)c2n1	-140	92	6	92	i	0.96	-1.5
CCCN1C(=O)C(O)(c2c(C)[nH]c3ccccc23)c2ccccc21 (centres undefined)	x	x	x	107	i	0.9	x
CCOC(=O)c1[nH]c2ccccc2c1NC(=O)c1ccco1	23	126	-2	97	i	1	-0.2
O=C(CSc1nnc(NC(=O)Cc2ccc(F)cc2)s1)NCc1ccco1	92*	141*	0	101	i	0.93	x
O=C(CC(c1ccccc1)c1ccco1)N1CCOCC1 (centres undefined)	6	84	-12	98	i	0.72	3.5
O=c1cc(O)c2ccccc2n1Cc1ccccc1	-55	123	7	100	i	1.1	x
CCOc1ccccc1NS(=O)(=O)c1ccc2c(c1)n(C)c(=O)c(=O)n2C	-17	108	-5	100	i	0.96	-0.5
CC(NC(=O)c1ccc2c(c1)OCO2)C1CCCO1 (centres undefined)	-3	124	-6	105	i	0.96	-0.6
COc1ccc(C(c2oc(CO)cc(=O)c2O)c2oc(CO)cc(=O)c2O)cc1	0	144	-1	115	i	0.94	x
CCCCC(=O)Nc1c(O)c2ccccc2[nH]c1=O	-2	104	3	101	i	0.99	-1.5
Cc1ccccc1CNC(=O)c1cc(COc2ccc(F)cc2F)on1	x	x	-1	99	i	0.94	x
COC(=O)CC/C(O)=C1/C(=N)CC(C)(C)CC1=O	3	108	-1	98	i	1	-3.1
CC(C)CC(C(=O)NC(=O)NCc1ccccc1)N1C(=O)c2ccccc2C1=O (centres undefined)	13	83	-2	101	i	0.78	-2.3
CC1CCN(CCCNC(=O)c2cc3c(Cl)nc4ccccc4c3s2)CC1	x	x	2	102	i	0.65	x
Cc1[nH]n(-c2ccccc2)c(=O)c1N=Nc1nccs1	x	x	0	107	i	0.88	-2.2
COc1ccc(NC(=O)CNS(=O)(=O)c2cccs2)cc1	19	134	-11	105	i	0.88	-1.4
CCN1CNC(=S)N(C(C)c2ccccc2)C1 (centres undefined)	21	115	2	98	i	0.99	-0.8
O=C(Cn1c(CO)nc2ccccc21)NCCc1ccccc1	-13	67	9	102	i	0.97	x
Cc1ccc(C(=O)N2CCN(c3cccc(Cl)c3)CC2)cc1C	x	x	6	102	i	0.78	-0.9

Pulled by compound from above, 2 records:
SMILES	Insulin prom inh	Insulin prom inh cell count	PKD1 kinase inh	RGS16-Gao HTS	HSV augment	HSV augment primary fold	GALR2 agonist
C/C=C/c1ccc(OCC(=O)Nc2ccc(C(N)=O)cc2)c(OC)c1	-71	34	7	112	x	x	x
Cc1ccc2cccc(NC(=S)NC(=O)c3c(Br)cnn3C)c2n1	-140	92	6	92	i	0.96	-1.5

(further entries)
SMILES	Insulin prom inh	Insulin prom inh cell count	PKD1 kinase inh	RGS16-Gao HTS	HSV augment	HSV augment primary fold	GALR2 agonist
O=c1[nH]c(SCc2ccccc2)nc2c1cnn2-c1ccc(F)cc1	x	x	0	103	x	x	x
COc1ccc(NC(=O)Cn2nnc(C(=O)Nc3ccccc3C)c2N)cc1	38	72	-4	114	x	x	x
Cc1c(NC(=O)C(C)OC(=O)c2cccc(S(=O)(=O)N(C)C)c2)c(=O)n(-c2ccccc2)n1C (centres undefined)	x	x	5	105	i	1	x
COC(=O)CS(=O)(=O)c1ccsc1C(=O)Nc1ccc(F)c(F)c1	36	203	0	110	i	0.96	x
COc1ccc(N=C2SC(CC(=O)Nc3ccccc3F)C(=O)N2Cc2ccco2)cc1 (centres undefined)	10	103	-6	108	i	0.87	-2.4
O=C1C2=C(SCCS2)C(=O)N1CCCO	6	81	-7	114	x	x	-1.4
CCCOc1c(OC)cccc1C1CC(=O)Nc2cc3c(cc21)OCO3 (centres undefined)	3	95	-1	101	i	0.52	0.6
COc1ccc(-c2nc3c(c4nnc(SC(C)C(=O)Nc5ccc(C)cc5)n24)COC(C)(C)C3)cc1 (centres undefined)	6	92	3	91	i	0.97	-0.3
O=C(NCCO)c1ccc2c3n(nc2c1)-c1ccccc1CO3	x	x	x	104	i	1.1	x
COc1ccc(NC(=O)COC(=O)CC23CC4CC(CC(C4)C2)C3)c([N+](=O)[O-])c1	x	x	-6	93	i	1.1	-1.4
O=C(CSc1n[nH]c(=O)[nH]c1=O)N/N=C/C=C/c1ccccc1	x	x	x	102	i	1.1	x
N#CC1=C(N)NC(SCC(=O)Nc2ccccc2)=C(C#N)C12CCCCC2	x	x	-16	112	i	0.92	-1.5
Cc1cccc(-n2ccnc2SCC(=O)Nc2cc(C)on2)c1	54	46	-5	127	i	1.1	-0.4
Cc1ccc(C(=O)COC(=O)c2cccc(NC(=O)c3ccc([N+](=O)[O-])cc3[N+](=O)[O-])c2)cc1	27	31	-6	80	i	0.73	-2.6
COc1ccccc1/C=C/C(=O)c1cc(Br)ccc1OC(=O)c1ccco1	-16	132	6	x	x	x	-0.8
O=c1c(O[C@@H]2O[C@H](CO)[C@@H](O)[C@H](O)[C@H]2O)c(-c2ccc(O)c(O)c2)oc2cc(O)cc(O)c12	x	x	x	100	i	0.73	x
Cc1csc2ncnc(NNC(=O)c3ccc(Cl)cc3)c12	x	x	x	102	i	1	x
COc1ccc(CCNC(=O)C(=O)N2CCCC2)cc1OC	x	x	3	103	i	0.91	x
COc1ccccc1OCCC(=O)N1CCN(c2ccccc2OC)CC1	x	x	x	90	i	0.93	x
C/C(=N/NC(N)=S)c1ccc(Br)s1	x	x	-1	92	i	0.92	x
COc1ccc(C(=O)NC2c3ccccc3-c3ccccc32)cc1	x	x	-8	96	i	0.82	0.6
Nc1nc(NC(=O)c2cccc(S(=O)(=O)N3CCCCCC3)c2)nc(-c2ccccc2)n1	x	x	5	106	i	0.91	1.6
COC(=O)C(NC(C)=O)(Nc1ccc(Br)cn1)C(F)(F)F (centres undefined)	22	99	10	105	i	1	-2.8
CCOC(=O)/C(C#N)=C/Nc1ccccc1OC	x	x	-10	66	i	1	-0.9
O=C(Nc1ccc(Nc2ccncc2)cc1)c1ccc(Nc2ccnc3ccc([N+](=O)[O-])cc23)cc1[N+](=O)[O-]	x	x	x	103	i	0.98	x
COc1ccc(-c2csc(NC(=O)C3=NN(c4ccccc4)C(=O)CC3)n2)cc1	x	x	1	107	i	0.88	x
CCOC(=O)c1csc(N)n1	27	188	-4	100	i	0.87	x
Cc1cc(C)n2nc(-c3ccc(F)cc3)nc2n1	0	93	-8	104	i	0.9	-2.7
O=C1CC(c2cccc([N+](=O)[O-])c2)c2c(ccc3ccccc23)N1 (centres undefined)	21	73	11	101	i	0.92	-2.0
CCN(CC)C(=O)N1CCN(C)CC1	x	x	x	102	i	0.75	x
Cc1ccc(OCc2nc(-c3ccc(Cl)cc3)n[nH]2)cc1	13	180	2	105	i	0.94	-0.5
CC(=O)O[C@@H]1C[C@H]2C(C)=C[C@H]3OC(=O)[C@@H](C)[C@H]3C[C@H]2[C@]1(C)O	x	x	x	101	i	0.85	x
Cc1nc2c(c(=O)n1CCC1=CCCCC1)c1nc3ccccc3nc1n2/N=C/c1ccccc1	-6	120	4	98	i	0.93	-1.8
C/C(=N\NC(=O)Cn1nc(C)c([N+](=O)[O-])c1C)c1ccco1	x	x	x	101	i	1.1	x
CCOC(=O)Cc1csc(SCC(=O)N2CCN(c3ccc(OC)cc3)CC2)n1	8	98	-13	97	i	0.94	-1.3
COc1ccc(Cl)cc1C(Nc1cccnc1)c1ccc2cccnc2c1O (centres undefined)	x	x	-2	101	i	0.79	x

Compound profiles, as listed above. Values in the order: Insulin prom inh, Insulin prom inh cell count, PKD1 kinase inh, RGS16-Gao HTS, HSV augment, HSV augment primary fold, GALR2 agonist
Cc1ccc(OCc2nc(-c3ccc(Cl)cc3)n[nH]2)cc1 is listed with 13, 180, 2, 105, i, 0.94, -0.5
COc1ccc(Cl)cc1C(Nc1cccnc1)c1ccc2cccnc2c1O (centres undefined) is listed with x, x, -2, 101, i, 0.79, x
COc1ccc(-c2csc(NC(=O)C3=NN(c4ccccc4)C(=O)CC3)n2)cc1 is listed with x, x, 1, 107, i, 0.88, x
Cc1cc(C)n2nc(-c3ccc(F)cc3)nc2n1 is listed with 0, 93, -8, 104, i, 0.9, -2.7
CC(=O)O[C@@H]1C[C@H]2C(C)=C[C@H]3OC(=O)[C@@H](C)[C@H]3C[C@H]2[C@]1(C)O is listed with x, x, x, 101, i, 0.85, x

Carrying on.
SMILES	Insulin prom inh	Insulin prom inh cell count	PKD1 kinase inh	RGS16-Gao HTS	HSV augment	HSV augment primary fold	GALR2 agonist
Oc1c(C=NCc2ccc(F)cc2)[nH]c2ccc(Br)c(Cl)c12	62	64	2	104	i	0.99	0.4
CCOC(=O)c1c(NC(=O)C2C3CCC(O3)C2C(=O)O)sc(C)c1-c1ccc(F)cc1 (centres undefined)	33	64	-2	97	i	0.99	-1.3
COc1ccc(C(=O)NC(=S)NNC(=O)CNC(=O)C2CCCCC2)cc1	27	131	7	106	i	0.91	x
CN(C)c1ccc(NC(=O)COC(=O)c2cc(Cl)ccc2[N+](=O)[O-])cc1	-32	113	4	102	i	0.9	-0.8
S=C1Nc2ccccc2Sc2ccc(Cl)cc21	46	142	-10	60	i	0.8	0.4
COc1ccc(OC)c(Nc2nc(N)nc(CCl)n2)c1	x	x	x	105	i	0.55	x
